From PubChem BioAssay
VACV E9 pol inh = vaccinia E9 polymerase processive synthesis inhibitors, primary screen, biochemical, absorbance; Vaccinia virus DNA polymerase (E9) processive complex; in vitro processive DNA synthesis, absorbance read-out; active compounds read low; some inactives read as strong as hits; normalized absorbance, % (no concentration beside the values); AID 493162, 2011; 46,000 compounds, 0.94% hits;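 active = replicate mean up to 90% and picked by the depositor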;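 note: 100% = median of the test wells of a plate; 100 nL library stock went into each well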
* marks the source's active call; other numbers are inactive results. Only part of the results is shown, so the mix of outcomes need not match the whole.

molecule	VACV E9 pol inh
CC(N=Cc1ccccc1O)c1ccccc1 (stereo not given)	93
O=S(=O)(c1ccccc1)c1nc(Nc2ccccc2N2CCOCC2)sc1Cl	101
O=S(=O)(c1ccc(-c2csc(-c3cccnc3)n2)cc1)N1CCCCC1	106
O=S(=O)(Cc1cccc(F)c1)c1c[nH]c2ccccc12	99
OCc1cc2c(s1)CCCC2	106
CC(=O)Nc1cc2c(ccc3ccccc32)oc1=O	100
Cc1ccc(S(=O)(=O)N2CCOCC2)c(C)c1	100
Cc1ccc(C(=O)c2cnc3cc4c(cc3c2N2CCC(C(N)=O)CC2)OCO4)cc1C	101
CCCn1c(/N=C/c2ccccc2Cl)nc2ccccc21	87
NNc1ccc(C(F)(F)F)cn1	76
CN1C(=O)C(O)N=C(c2ccccc2)c2cc(Cl)ccc21 (stereo not given)	99
CC1CCN(C(=O)c2cc3nc(-c4ccco4)cc(C(F)(F)F)n3n2)C(C)C1 (stereo not given)	107
Cc1c(C(N)=O)nnc2cc(-c3ccccc3)nn12	104
Oc1ccccc1-c1csc(-c2ccccc2)n1	90
O=C(CSc1nc2ccccc2n1-c1ccccc1)NCC1CCCO1 (stereo not given)	99
Nc1nnc(-c2ccccc2)c(-c2ccccc2)n1	102
CC(O)(C#CC12CC3CC(CC(C3)C1)C2)c1cccs1 (stereo not given)	100
COc1ccc(NC(=O)CSc2nc3c(oc4ccccc43)c(=O)n2C)cc1OC	89
O=C(CSC1CCCCC1)N1CCCC1	96
COc1ccc(C)c2c1CCCC2=O	100
COc1ccc(C(=O)O)cc1Nc1nc2ccccc2n2c(C)nnc12	96
Cc1ccc(C(=O)CSc2nnc(-c3cccs3)n2C)o1	100
COc1ccc(CCNc2ncnc3sc(C)c(C)c23)cc1OC	101
Cc1cc(C)cc(N=Cc2cccc(OCc3ccccc3)c2)c1	100
O=C(NC1CCCCNC1=O)c1ccc(N2CCOCC2)nc1 (stereo not given)	96
Cc1ccc(C(=O)CC(Sc2ccccc2N)c2ccsc2)cc1 (stereo not given)	100
CCOc1ccccc1C1C(C#N)=C(SC)NC(=O)C1C#N (stereo not given)	100
CCN(CC)S(=O)(=O)c1ccc(-c2csc(Nc3cccc(OC)c3)n2)cc1	100
CC1=C(C(=O)NCc2ccco2)C2(CCCCC2)OC1=O	100
O=C(CC1c2ccccc2Oc2ccccc21)NCCOc1ccccc1Cl	100
Cc1ccc2nc(C)n3c4ccccc4c(NC=O)c3c2c1	100
Cc1cc(C)n(CCSCC(=O)O)n1	100
N#Cc1ccc(C(=O)OCC(=O)NC23CC4CC(CC(C4)C2)C3)cc1	100
N#Cc1ccc(COC(=O)CNC(=O)c2ccccc2)cc1	102
Cc1cc(=O)oc2cc(OCC(=O)N3CCc4ccccc4C3)ccc12	105
C=CCNS(=O)(=O)c1ccccc1C(F)(F)F	102
CCCNC(=O)Cn1c(=O)c2cccn2c2ccccc21	102
O=C(c1ccccc1)C1CCN(S(=O)(=O)c2ccc(Cl)cc2)CC1	100
COc1ccc(-n2nc3c(c2NC(=O)c2ccccc2C(F)(F)F)CSC3)cc1	100
O=C(c1ccccc1)c1ccc(OC(=O)c2ccc(Br)o2)cc1	103
COCCn1c(COc2ccccc2)nc2ccccc21	74
CC1=NN(c2ccc(-c3csnn3)cc2)C(=O)C1	100
CC(=O)NC1=NN(C(C)=O)C(c2cccc3ccccc23)N1C(C)=O (stereo not given)	96
COc1cccc(N(C(=O)C(F)(F)F)C(C(=O)NC2CCCC2)c2cccs2)c1 (stereo not given)	100
O=C1C=C(Nc2ccc(F)c(C(F)(F)F)c2)c2ccccc2C1=O	98
CC(=O)NC1=NC(=O)C(CC(=O)O)S1 (stereo not given)	101
CCOC(=O)c1c(/N=C/c2c(O)ccc3ccccc23)sc2c1CCC2	100
CC1=CC(C)C(C2OCC(CN3CCCCC3)O2)C(C)C1 (stereo not given)	101
O=c1[nH]c(CN2CCCCC2)nc2c1oc1ccccc12	98
N#Cc1ccccc1NC(=O)COC(=O)CC1CC2CCC1C2 (stereo not given)	101
CC1CCCN(CCCNC(=O)c2coc3nc4ccccc4nc23)C1 (stereo not given)	60*
Cc1ccc2[nH]c(=O)c(CC(=O)O)c(-c3ccccc3)c2c1	106
CC(C(=O)N1CCN(c2ccc(F)cc2)CC1)N1C(=O)c2ccccc2C1=O (stereo not given)	100
CC(C(=O)O)N1C(=O)/C(=C2/C(=O)N(C)c3ccccc32)SC1=S (stereo not given)	101
COc1ccc(-[n+]2cc([O-])on2)cc1	100
O=C(Nc1ccccc1C(=O)O)c1ccccc1Cl	96
Cc1ccc(C(=O)COC(=O)C2C3C=CC(C3)C2C(=O)OCC(=O)c2ccc(C)c(C)c2)cc1C (stereo not given)	100
Cc1ccc(C2=C/C(=C\c3ccccc3C)C(=O)O2)cc1	100
CN(C)/C=C/c1cc2c(cn1)C(=O)c1ccccc1-2	92
N#C/C(=C\c1ccncc1)c1ccc(NC(N)=O)cc1	104

Continued.
molecule	VACV E9 pol inh
Cc1cccc(C2CC(=O)NC3=C2C(=O)CC(c2cccs2)C3)c1 (stereo not given)	98
CCC(C)NC(=O)c1cc(C2CC2)on1 (stereo not given)	94
O=C1/C(=C/c2cccs2)CCSc2ccccc21	90
Cc1cc(C)nc(SCC(=O)N(c2ccccc2)C(C)C)n1	96
CCC(Sc1ccc(Cl)cc1)C(=O)Nc1nnc(-c2ccccc2)s1 (stereo not given)	97
Cc1cccc(N(C)S(=O)(=O)c2ccc3c(c2)CCC(=O)N3)c1	85
Cc1ccc(C2=NNC(c3cccs3)S2)cc1 (stereo not given)	100
CC1CCCC(C)N1C(=O)CSCc1ccco1 (stereo not given)	101
Cc1ccc(-c2nnc(Nc3ccc(S(N)(=O)=O)cc3)c3ccccc23)cc1S(N)(=O)=O	98
CC1CCN(CCC(=O)Nc2sc3c(c2C#N)CCCC3)CC1	101
Cc1cc(Cc2ccc(Cl)cc2)c(=O)[nH]n1	84
CC(=O)Nc1c2c(nn1-c1ccc(Cl)cc1)CS(=O)(=O)C2	101
COc1nc(Nc2ccc3c(c2)OCO3)nc(OC)n1	100
O=C(CN1N=C(c2ccccc2)CCC1=O)NC1CC1	82
O=C1Nc2ccccc2S/C1=C/Nc1ccccc1Cl	100
O=C(O)c1ccccc1C(=O)NCC1CCCO1 (stereo not given)	99
CCOC(=O)c1csc(-c2ccc(Cl)cc2)n1	83
Cc1ccc(-c2nc(C=Nc3ccccc3)c(O)o2)cc1	102
COC(=O)C1=C(C)N(Cc2cccnc2)C(=O)/C1=C\c1ccccc1C(F)(F)F	100
O=c1cc(-c2ccc(O)cc2)oc2cc(O)cc(O)c12	85*
Cc1ccc(-c2ccc(C)c(N)c2C)c(C)c1N	101
O=C1CSC(c2ccccn2)N1Cc1cn2ccccc2n1 (stereo not given)	100
NNc1nc2cc3c(cc2s1)OCO3	50*
O=C(c1ccno1)N1CCN(C2c3ccccc3-c3ccccc32)CC1	102
CC1CCC2(CC1)Oc1ccccc1C1CC(c3ccco3)=NN12 (stereo not given)	107
S=CC1=C2NCCCN2C2CCCCC12 (stereo not given)	97
O=C(Cc1ccccc1)Nc1ccc(N2CCOCC2)c(C(=O)O)c1	87
Cc1cc(NCCO)n2c(nc3ccccc32)c1C#N	100
CCN1C(=O)NC(c2ccc(Cl)cc2)C2=C1CCCC2=O (stereo not given)	99
COc1ccc(OCC2c3cc(OC)c(OC)cc3CCN2C(=O)C(C)C)cc1 (stereo not given)	96

The list goes on (8 carried over from the part before).
Structure,VACV E9 pol inh
NNc1nc2cc3c(cc2s1)OCO3,50*
O=C(c1ccno1)N1CCN(C2c3ccccc3-c3ccccc32)CC1,102
CC1CCC2(CC1)Oc1ccccc1C1CC(c3ccco3)=NN12 (stereo not given),107
S=CC1=C2NCCCN2C2CCCCC12 (stereo not given),97
O=C(Cc1ccccc1)Nc1ccc(N2CCOCC2)c(C(=O)O)c1,87
Cc1cc(NCCO)n2c(nc3ccccc32)c1C#N,100
CCN1C(=O)NC(c2ccc(Cl)cc2)C2=C1CCCC2=O (stereo not given),99
COc1ccc(OCC2c3cc(OC)c(OC)cc3CCN2C(=O)C(C)C)cc1 (stereo not given),96
CCCCC1CCC(C(=O)O)CC1 (stereo not given),97
Cc1ccc(NC(=S)N2CCC(Nc3nccc(C(F)(F)F)n3)CC2)c(C)c1,105
CCCOc1ccc(-c2cc(C(=O)NO)[nH]n2)cc1C,90
COC(=O)c1ccc(CNC(=O)c2cc3c(s2)CCCC3)cc1,101
CCCCC/C=C\C/C=C\C/C=C\C=C\[C@@H](O)CCCC(=O)O,100
CCn1c2c(c3cc(Br)ccc31)CCCC2=O,100
COC(=O)Cn1c(=NC(=O)C(C)C)sc2cc(Cl)ccc21,107
N#C/C(=C\c1ccccc1/C=C(\C#N)c1ccc2c(c1)OCO2)c1ccc2c(c1)OCO2,94
COc1ccc(-c2nnc(-c3cccnc3)o2)cc1OC,102
Cc1ccccc1NC(=O)CCC(=O)O,99

Retrieved one by one from the list above, 4 records:
Structure,VACV E9 pol inh
CCn1c2c(c3cc(Br)ccc31)CCCC2=O,100
CCCOc1ccc(-c2cc(C(=O)NO)[nH]n2)cc1C,90
COC(=O)Cn1c(=NC(=O)C(C)C)sc2cc(Cl)ccc21,107
CCCCC1CCC(C(=O)O)CC1 (stereo not given),97

Carrying on.
Structure,VACV E9 pol inh
COc1ccccc1/C=C/C(=O)OCC(=O)Nc1ccccc1C(C)C,85
O=C(CC1C(=O)NCCN1C(=O)c1ccccc1)Nc1cccc(Cl)c1 (stereo not given),92
S=c1nc(C23CC4CC(CC(C4)C2)C3)[nH][nH]1,100
CCCCCCCCCCCCC/C=C/[C@@H](O)[C@H](CO)N(C)C,99
O=C(Cc1cccs1)Nc1ccc2c(c1)OCCO2,104
Cc1n[nH]c(=O)c2nc(-c3ccccc3)sc12,101
CC(C)CCNC(=O)c1cc(-c2ccccn2)nc2ccccc12,105
COc1ccc(-c2nc3ccccn3c2NC(=O)CC(C)C)cc1,97
COc1ccc(C2CC2/C(C)=N/O)cc1 (stereo not given),102
N#CCCN(CC1CCCO1)C(=S)Nc1ccc(F)cc1 (stereo not given),104
CC(C)CSc1nnc2sc3ccccc3n12,100
Cc1nc2ccc(NC(=O)/C=C/c3ccccc3)cc2s1,102
NC(=O)c1ccc(NC(=O)CSc2nc3ccccc3[nH]2)cc1,104
CC(C)Cc1ccc(S(=O)(=O)N2CCCc3ccccc32)cc1,96
CCc1ccccc1NC(=O)c1ccc2nc(N3CCC(C)CC3)sc2c1,99
O=C(O)C1C2C=CC(C2)C1C(=O)N1CCc2c([nH]c3ccccc23)C1C(F)(F)F (stereo not given),100
CC1Cn2c(C(=O)N3CCc4ccccc4C3)cc3c(Cl)ccc(c32)O1 (stereo not given),105
CC1=NOC(=O)/C1=C\C=C/c1ccccc1,100
O=C(CSc1c2c(nc3ccccc13)CCCC2)N1CCCc2ccccc21,102
CCOC(=O)c1ccc(Nc2ncnc3ccccc23)cc1,100
CCc1cccc(NS(=O)(=O)c2ccc3c(c2)CC(=O)N3)c1,104
Cc1ccn2cc(C(=O)O)nc2c1,103
CC1CCC(NC(=O)CCn2c(=O)c3cccn3c3cccnc32)CC1 (stereo not given),102
O=C(/C=c1\[nH]c(=O)/c(=C/c2cccnc2)s1)c1ccc(Cl)cc1,100
O=C1/C(=C/c2ccco2)CC/C1=C\c1ccco1,24*
CCCC(=O)Nc1ncnc2c1ncn2C1O[C@H]2COP(=O)(O)O[C@@H]2[C@@H]1OC(=O)CCC (stereo not given in full),100
O=C(CCNc1cccc(Cl)c1)c1ccco1,95
CC(C)(C)NC(=O)Oc1ccc(Cl)cc1,104
Cc1ccc(C(=O)OC2CSC2)cc1,101
O=S(=O)(c1ccc(-c2cnco2)cc1)N1CCCC1c1ccc(F)cc1 (stereo not given),125
NC(=S)c1cc(-c2ccccc2)c(C(F)(F)F)s1,98
CN1CCN(c2ccc3nnc(CCC(=O)Nc4nccs4)n3n2)CC1,96
N=C1c2ccccc2CN1Nc1ncc(C(F)(F)F)cc1Cl,100
Cc1nc(C)c(/C(O)=C/c2nc3cc(Cl)ccc3oc2=O)o1,99
COc1cccc(/C=N/c2c(-c3ccccc3)c(C(F)(F)F)nn2C)c1OC,98
O=C(COc1ccccc1C(=O)O)NCc1ccccc1,101
CCCNC(=O)c1cc(C)nn1-c1ccccc1,101
COc1ccc(C2C(C)C3(O)CC(C#N)(C(=O)N3)C2(C#N)C#N)cc1 (stereo not given),99
Cc1n(CC(=O)c2ccc(F)cc2)c2ccccc2[n+]1C,100
O=C(COC(=O)c1ccc(Br)cc1)c1ccc(Br)cc1,100
CC(C)c1ccc2c(ccc[n+]2C)c1,98
CCOc1ccc(OCCC(=O)O)cc1,99
NC(=O)COc1ccc(Cl)cc1,101
O=C(O)c1ccccc1C(=O)Cc1ccc(I)cc1,91
Nc1nc(SCC(=O)c2cc(-c3ccccc3)no2)ncc1C(=O)O,102
CC(=O)N1CCN(c2ccc(OC(=O)c3ccc(Oc4cc(Cl)cc(Cl)c4)o3)cc2)CC1,97
O=C(COC(=O)c1cncc(Br)c1)NCc1ccccc1,103
O=C(CCn1c(SCc2ccc(F)cc2)nc2c(sc3ccccc32)c1=O)NCC1CCCO1 (stereo not given),94
O=c1cc(CSc2n[nH]c(=O)n2Cc2ccco2)c2ccc(O)cc2o1,112
CCOC(=O)Cc1ccccc1C(=O)OC,100
COc1ccc(C(=O)CSC#N)cc1OC,100
Cn1cnnc1SC/C=C/c1ccccc1,100

Another view of four compounds above:
mol: CCC(C)NC(=O)c1cc(C2CC2)on1 (stereo not given)
  VACV E9 pol inh: 94

mol: O=C1/C(=C/c2cccs2)CCSc2ccccc21
  VACV E9 pol inh: 90

mol: Cc1cc(C)nc(SCC(=O)N(c2ccccc2)C(C)C)n1
  VACV E9 pol inh: 96

mol: CCC(Sc1ccc(Cl)cc1)C(=O)Nc1nnc(-c2ccccc2)s1 (stereo not given)
  VACV E9 pol inh: 97
